Screens from PubChem.
Mtb hypoxia rep = PubChem AID 1159583. M. tuberculosis hypoxia-regulated fluorescent reporter, fluorescence. fluorescence inhibition, % (no concentration beside the values). 0.1% of 300,000 active;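 active = 35 to 45% if threefold the growth effect, above 45% if 1.5-fold the growth effect; inactive = the rest, general growth blockers included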;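 note: wells of about 50 µL received 100 nL stock; 0% = vehicle wells and 100% = reference inhibitor wells; whole bacteria with a GFP reporter of the hypoxia response; strong numbers were not always called active; many hits fall short of the cut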
BJeLR viability = MLPCN primary cell-based screen for lethality selective to Ras in HRASV12 cells; 0.17% of 300,000 active; BJeLR (HRASV12) viability, CellTiter-Glo ATP luminescence, 48 h; reference of the scale not given here; inhibition, % (no concentration beside the values);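 active = replicate mean above 50%; inconclusive = above 50% but judged a plate artefact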;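 note: 50 nL library stock added to about 25 µL; numbers are from one replicate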
RN4220 kill = growth inhibition of S. aureus RN4220, primary screen, OD600 | 16 h | inhibition, % (concentration not given with the values) | 0.33% of 330,000 active | AID 1259311, 2017;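 active = z-score of -3 or lower and OD600 up to 0.18 on both plates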;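 note: plate controls were untreated cells for no effect and reference antibiotic for full effect; stock transfer was 100 nL into about 80 µL; one replicate is shown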
Bead autofluor = counter-screen for toxin protease inhibitors: compound fluorescence; AID 624483; compound autofluorescence counterscreen, microsphere flow cytometry; hits give high values; fluorescence intensity (test concentration not listed); 3.1% of 360,000 active;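 active = at least 3 SD above the mean of all compounds, about 16000 in these data; inconclusive = too few beads counted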;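 note: 100 nL of 1 mM stock went into each well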
Sa ugtP lethal = growth inhibition of ugtP-null S. aureus, primary screen, RN4220 ugtP deletion, OD600; growth inhibition, % (test concentration not listed); 16 h; some inactives read as strong as hits; 0.54% of 330,000 active;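 active = z-score under -3 and OD600 up to 0.15 on both plates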;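 note: plate controls were untreated wells for no effect and antibiotic for full effect; wells of about 80 µL received 100 nL stock; the first replicate is given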
PrP 5UTR inh = inhibition of PrP 5' UTR reporter expression; inhibition, % (test concentration not listed); 0.35% of 340,000 active; AID 488862, 2010; cell-based PrP 5' UTR mRNA reporter, plate reader;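 active = every replicate at 50% or more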;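 note: 0 = median of the neutral control wells; tested in H4 reporter cells; numbers are from one replicate; inactives centre near -14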
Mtb hypoxia rep growth = also measured in Mtb hypoxia rep; calls as there; growth inhibition, %; measured here: M. tuberculosis growth (absorbance);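 0% = vehicle and 100% = reference antibiotic; read after six days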
* = called active by the depositor; ? = inconclusive; . = not tested or not shown; & = joins results of further samples.

SMILES | Mtb hypoxia rep | Mtb hypoxia rep growth | BJeLR viability | RN4220 kill | Bead autofluor | Sa ugtP lethal | PrP 5UTR inh
COC(=O)c1ccc(N2CCN(C(C)=O)CC2)c(NC(=O)COc2ccccc2C)c1 | 11.5 | 16.8 | -6.1 | 3.2 | 3400 | 3.8 | -12.4
O=C(Nc1cc(S(=O)(=O)N2CCOCC2)ccc1N1CCOCC1)c1cn2ccccc2n1 | 2.3 | 6.9 | -0.1 | 5.2 | 3689 | 2.5 | -8.6
COc1ccc(NC(=O)c2ccccc2Oc2ccccc2)cc1 | 10.2 | 4.5 | -13.0 | 2.6 | 3556 | 9.4 | -2.4
CCOc1ccc(-n2cnc3scc(-c4ccc(OC)c(OC)c4)c3c2=O)cc1 | . | . | -9.9 | . | 4566 | . | -5.2
COc1cc(C(=O)NCc2ccccc2)ccc1OC(F)F | 6.3 | 7.9 | -11.0 | -0.9 | 2614 | 7.2 | -12.2
Cc1cc(C)c(S(=O)(=O)n2ccc(-c3ccc(OCCN(C)c4ccccn4)cc3)n2)c(C)c1 | -75.8 | -6.7 | 2.8 | -1.3 | 9861 | 0.9 | -8.5
Cc1noc(C)c1NC(=O)Nc1ccc2c(c1)CC(=O)N(C(C)CO)CC(C)C(CN(C)C(=O)Nc1cccc3ccccc13)O2 (stereo not given) | 15.0 | 10.9 | . | 2.8 | . | 1.1 | .
Cc1ccc(S(=O)(=O)N2CCC(C(=O)OCC(=O)N3CCCC(C)C3)CC2)cc1C (stereo not given) | 11.3 | 3.4 | 1.3 | 3.7 | 6708 | 5.1 | -19.1
C#CCOC(=O)Nc1ccc(OCC(F)(F)F)nc1 | 19.9 | 6.0 | -18.5 | 1.8 | 4353 | 23.9 | -32.9
CNC(=O)CN(C)S(=O)(=O)c1ccc(OC)c(Cl)c1 | . | . | 8.3 | -1.6 | 3643 | -3.7 | 9.8
CCCN1CCCCC1C(=O)Nc1c(C)cccc1C (stereo not given) | -0.6 | 6.3 | . | 5.1 | . | -1.2 | .
CCN(CC)S(=O)(=O)c1ccc(-c2nnco2)cc1 | . | . | -11.5 | 0.0 | 5083 | -3.4 | -8.1
Cc1cc(C)n2ncc(-c3cccc(Br)c3)c2n1 | 6.4 | 5.1 | 2.2 | 2.2 | 3724 | -6.9 | -33.2
CC(=O)N1CCc2c(sc(NC(=O)c3ccc(S(=O)(=O)N(C)C)cc3)c2C#N)C1 | 3.0 | 5.2 | -15.9 | 4.4 | 4414 | -0.7 | 5.7
Cc1cc2oc(=O)sc2cc1NS(=O)(=O)c1ccccc1 | -0.8 | -0.8 | -6.8 | -0.3 | 3776 | -1.4 | -4.4
NC(=O)C1(N2CCCCC2)CCN(Cc2ccc(F)cc2)CC1 | 6.5 | 7.7 | 2.4 | 2.0 | 21961* | -5.6 | -0.1
N#CC1(c2ccccc2)CCCN1C(=O)c1ccc(Br)o1 (stereo not given) | 11.4 | 0.3 | -14.7 | 1.2 | 12367 | 1.9 | -9.3
CCOC(=O)c1ccc(NC(=O)C2CCC(CNc3c(N4CCOCC4)c(=O)c3=O)CC2)cc1 (stereo not given) | -2.7 | 1.5 | 14.0 | 4.2 | 3396 | 7.4 | -14.3
C=CCn1c(COc2ccccc2)nnc1SCC(=O)NCC(=O)OCC | . | . | 3.5 | -0.5 | 4162 | 0.4 | -32.1
CC(=O)c1cccc(N(CC(=O)NC2CCCCC2)C(=O)CNC(=O)c2cccs2)c1 | 16.5 | 1.6 | -0.5 | -0.9 | 6355 | -1.3 | -16.1
Cc1cc(=O)c2cc(Br)ccc2n1CC(=O)NCc1ccccc1 | . | . | -2.5 | 8.0 | 6058 | 2.3 | -5.2
COc1ccc(Cl)cc1C(=O)NC(=S)Nc1cc(-c2nc3ccccc3[nH]2)ccc1C | . | . | 1.7 | 0.1 | 2250 | -23.2 | -46.4
COCCNc1nc(CSc2ccccc2)nc2sc(C)c(C)c12 | 14.4 | 10.9 | 2.2 | 13.3 | 1912 | 1.3 | -12.4
O=C(CN1CCCCC1)Nc1c2c(nc3ccccc13)N(c1ccccc1)CC2 | 2.5 | -12.1 | 1.0 | 4.4 | 4801 | 8.7 | -15.3
COc1ccc(C(=O)N2CC3(CC(c4ccc(Cl)cc4)=NO3)CC2C(=O)NCC(N)=O)cc1 (stereo not given) | 12.4 | 3.5 | . | 4.4 | . | -0.8 | .
FC(F)(F)c1cccc(NC(=S)NCc2ccc(Cl)cc2)c1 | 10.4 | 10.1 | 0.1 | 59.5 | 1973 | 60.6 | -17.6
Cc1ccc(C(=O)OCC(=O)N(C)C2CCS(=O)(=O)C2)cc1S(=O)(=O)N1CCCCC1 (stereo not given) | -11.4 | 6.4 | 4.8 | -0.1 | ? | -0.9 | 1.6
O=C(c1ccccc1)c1cccc(C(=O)c2ccccc2)c1 | 6.3 | 4.8 | . | 4.6 | 5053 | 5.1 | 8.9
COc1cc(C=NNc2nc(C)cc(=O)[nH]2)ccc1OC(=O)c1cccnc1 | 1.3 | 0.8 | . | 5.3 | . | -1.1 | .
COc1ccccc1NS(=O)(=O)c1cc(C(=O)NCC2CCCO2)ccc1C (stereo not given) | 8.3 | 10.8 | 8.0 | 1.5 | 6830 | 1.8 | -14.0

3 consecutive entries already listed, quoted:
SMILES | Mtb hypoxia rep | Mtb hypoxia rep growth | BJeLR viability | RN4220 kill | Bead autofluor | Sa ugtP lethal | PrP 5UTR inh
CCCN1CCCCC1C(=O)Nc1c(C)cccc1C (stereo not given) | -0.6 | 6.3 | . | 5.1 | . | -1.2 | .
CCN(CC)S(=O)(=O)c1ccc(-c2nnco2)cc1 | . | . | -11.5 | 0.0 | 5083 | -3.4 | -8.1
Cc1cc(C)n2ncc(-c3cccc(Br)c3)c2n1 | 6.4 | 5.1 | 2.2 | 2.2 | 3724 | -6.9 | -33.2

Following part.
SMILES | Mtb hypoxia rep | Mtb hypoxia rep growth | BJeLR viability | RN4220 kill | Bead autofluor | Sa ugtP lethal | PrP 5UTR inh
Cc1cc(NC(=O)Nc2ccccc2)n(-c2ccccc2)n1 | 4.5 | 18.1 | -3.2 | 0.5 | 2773 | 1.0 | -29.0
CCc1ccc(NC(=O)C(=O)NCCN2CCN(S(=O)(=O)c3ccccc3)CC2)cc1 | 2.3 | 1.1 | -1.0 | 2.8 | 3539 | 2.3 | -13.3
O=C(NS(=O)(=O)c1ccccc1)c1ccccc1F | -4.0 | 1.3 | -2.0 | -1.7 | 2815 | -8.3 | -27.3
Cc1ccc(C(=O)c2ccccc2C(=O)OCC(=O)Nc2ccc(SC(F)F)cc2)cc1 | 12.0 | 6.5 | -1.4 | 4.9 | 2067 | 7.0 | -26.8
COc1ccc(-n2cc(-c3ccccc3)[nH]c2=S)cc1 | -4.4 | 3.6 | -7.1 | 3.8 | 1987 | 6.5 | -16.0
O=C(NCCCN1CCOCC1)C(Cl)(Cl)Cl | 5.3 | 5.3 | 3.8 | 1.4 | 2551 | 5.0 | -8.5
CCC(C)c1ccc(NC(=O)CN(C)CC(=O)Nc2cccc(OC)c2)cc1 (stereo not given) | 18.1 | -2.4 | 1.9 | 2.5 | 4180 | 3.5 | 1.4
CCOC(=O)c1ccccc1NC(=O)C1CSC2(C)CCC(=O)N12 (stereo not given) | 13.3 | 6.4 | 2.4 | 6.1 | . | 7.9 | -12.1
COc1ccc(Cn2c(-c3ccco3)nc3oc4ccccc4c(=O)c3c2=O)cc1 | -3.1 | -7.8 | 2.4 | -3.2 | 10274 | -6.6 | -15.9
CCOC(=O)n1c(=O)n(Cc2cccc(C)c2)c2ccccc21 | -0.1 | -0.8 | -3.6 | 2.0 | 2213 | 2.8 | -15.1
COC(=O)CCCNC(=O)c1ccc(S(=O)(=O)NCc2ccco2)cc1 | -9.7 | -15.7 | -10.4 | 1.3 | 8737 | 5.3 | -16.6
O=C(C1=CC(c2ccccc2)CC(OCc2ccc(CO)cc2)O1)N1CCN(Cc2ccc3c(c2)OCO3)CC1 (stereo not given) | 6.2&9.1 | 0.8&0.0 | . | 7.9&8.8 | . | 6.2&-16.3 | .
Cn1c(CNC2CCCCC2)c(C#N)c2ccccc21 | 17.5 | 15.3 | -8.5 | 5.7 | 3790 | 5.3 | -22.9
CCCCC(=O)Nc1ccc(C(=O)Nc2nc(CC(=O)OCC)cs2)cc1 | -1.1 | 0.5 | 12.9 | -5.9 | 10924 | -11.0 | -13.1
CN=c1scc(-c2ccc([N+](=O)[O-])cc2)n1/N=C/c1ccco1 | . | . | -3.3 | . | 3883 | . | -49.9
Clc1ccccn1 | 12.5 | 12.5 | . | 4.1 | 5581 | 9.0 | -14.2
C=CCOC(=O)C1=C(C)Nc2nc3ccccc3n2C1c1ccncc1 (stereo not given) | 0.7 | 13.1 | -0.8 | 4.1 | 5584 | -5.5 | -19.9
C=CCN(c1ccccc1)S(=O)(=O)c1c(C)[nH]c(=O)[nH]c1=O | -1.5 | 2.7 | -5.5 | 5.6 | 3898 | 8.3 | -12.3
COc1ccc(OCC(=O)N/N=C(\C)CC(=O)Nc2ccc(NC(C)=O)cc2)cc1 | . | . | 4.3 | . | 5941 | . | -17.3
COc1ccc(CCNC(=O)c2ccc3nc4cc(Cl)ccc4c(=O)n3c2)cc1OC | -17.0 | -1.5 | -2.8 | -0.6 | 3592 | -21.4 | 11.5
CCOC(=O)N1CCN(S(=O)(=O)c2ccc(F)c(C(=O)Nc3ccc(C(C)C)cc3)c2)CC1 | 0.9 | -0.8 | -2.1 | 2.5 | 10578 | 5.2 | -113.6
COc1ccc(NC(=O)CCC(=O)NCc2ccco2)c([N+](=O)[O-])c1 | 22.2 | 11.3 | 5.9 | 4.7 | 3544 | 4.4 | -16.0
CCn1c(=O)cc(O)c2c(=O)n(C)c(=O)n(C)c21 | . | . | 2.0 | 5.2 | 4272 | 6.6 | -19.6
CN(C)S(=O)(=O)c1cccc(C(=O)Nc2cc(Cl)ccc2O)c1 | . | . | -3.9 | -0.9 | 2843 | -9.0 | -32.6
Cc1ccc(NC(=O)c2cc(-n3cnnc3)ccc2Cl)c(C)c1 | 21.3 | -19.3 | 3.6 | 1.7 | 2772 | 5.0 | -17.7
CN(Cc1ccccc1)C(=O)COC(=O)c1cc(S(=O)(=O)N(C)C)ccc1N1CCCC1 | -4.8 | 6.4 | -4.1 | -0.5 | ? | -2.3 | -4.6
O=c1cc(-c2ccccc2)[nH]c2nc3ccccc3n12 | 24.2 | 9.7 | 9.0 | 13.2 | 4501 | -6.6 | -46.9
O=C1CCC[C@@H]2CC(Nc3ccc(F)cc3F)C[C@@H]3CCN1[C@H]23 (stereo not given in full) | 5.1 | 3.8 | . | 4.6 | 2948 | 12.0 | -30.2
NC(=O)CCCc1nc(-c2ccccc2Cl)no1 | 1.8 | 0.0 | -0.6 | 4.3 | 11046 | -0.8 | -22.2
CCc1ccccc1NC(=O)C1CCCC1 | -1.1 | 7.8 | -9.7 | 4.0 | 3684 | 2.6 | .
O=[N+]([O-])c1ccc(Nc2ccccc2F)nc1 | 12.2 | 20.2 | 5.3 | -2.6 | 4108 | -12.2 | -15.0
O=Cc1ccc(OC(=O)C2CC(=O)N(c3ccc(F)cc3)C2)cc1 (stereo not given) | -17.1 | 1.3 | 4.4 | 0.6 | 5951 | -2.4 | -26.6
O=C1c2ccccc2C(=O)N1CC(O)COc1ccccc1Cl (stereo not given) | 5.0 | -2.5 | 2.3 | 3.9 | . | 9.0 | -4.4
CCN1CCCc2cc(CN(CCN3CCOCC3)C(=S)Nc3ccc(OC)cc3)ccc21 | 7.7 | 5.0 | 5.4 | 10.7 | 3982 | 7.7 | -28.4
CC(=O)c1ccc(NC(=S)NCc2ccco2)cc1 | 7.4 | 8.4 | -2.6 | 8.3 | 4575 | 0.3 | -21.3
CC(=O)Nc1ccc(S(=O)(=O)N[C@@H](C)C(=O)OCC(=O)c2ccc(C)cc2)cc1 | 7.7 | 2.5 | . | 2.9 | 5051 | 0.9 | -10.7

An excerpt from above, limited to Sa ugtP lethal, PrP 5UTR inh and Mtb hypoxia rep.
mol | Sa ugtP lethal | PrP 5UTR inh | Mtb hypoxia rep
Cc1cc(C)n2ncc(-c3cccc(Br)c3)c2n1 | -6.9 | -33.2 | 6.4
COC(=O)c1ccc(N2CCN(C(C)=O)CC2)c(NC(=O)COc2ccccc2C)c1 | 3.8 | -12.4 | 11.5
CCOC(=O)c1ccc(NC(=O)C2CCC(CNc3c(N4CCOCC4)c(=O)c3=O)CC2)cc1 (stereo not given) | 7.4 | -14.3 | -2.7
